Screening results (PubChem)
SARS PLpro yeast: qHTS of Yeast-based Assay for SARS-CoV PLP | S. cerevisiae expressing SARS-CoV PLpro, growth rescue; control for the full effect not named in the record | Potency, µM (titrated, usually from 32.9 µM), without a hit: at the top dose activity, positive = growth rescue | 0.19% of 330,000 active | AID 485353, 2010; active means well fitted rising curve with a large enough effect; inconclusive means small, poorly fitted or top-dose-only effect; inactive means no such curve, though single readings can be large or run the other way; further: 0% is about no effect; nearly all actives have a fitted effect of over 55% in size; growth read by luminescence after 48 h
RE007 growth inh: qHTS Assay for Inhibitors of the HIV-1 protein Vpr. Potency, µM (titrated, usually from 92.2 µM), without a hit: top-dose activity change, negative = less growth. S. pombe RE007 Vpr strain, BacTiter-Glo ATP luminescence, 24 h; control for the full effect not named in the record. 0.21% of 360,000 active; active = well fitted falling curve with a large enough effect; inconclusive = small, poorly fitted or top-dose-only effect; inactive = no such curve, though single readings can be large or run the other way;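 further: on the % scale 0 is the no-effect control and ±100 the full control effect; nearly all actives have a fitted effect of over 50% in size; the assay follows cell death caused by Vpr and the record does not say whether a fall means rescue or toxicity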
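Fission yeast strain RE007, carrying one chromosomally integrated HIV-1 vpr copy, was seeded at OD 0.01 in PMG+AL medium with 23 nL pinned compound. After 24 h at 30 °C and 99% humidity, viability was read by BacTiter-Glo luminescence.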
2A StopGo: High Throughput Screening for Foot and Mouth Disease Virus Antivirals; AID 1159524, 2015; 1.2% of 410,000 active; human cells with a luciferase reporter of 2A StopGo recoding; control for the full effect not named in the record; Potency, µM (highest dose often 57.9 µM), without a hit: at the highest dose signal change, negative = less light; active = well fitted falling curve with a large enough effect; inconclusive = small, poorly fitted or top-dose-only effect; inactive = no such curve, though single readings can be large or run the other way; tested in HEK293T cells; further: on the % scale 0 is the no-effect control and ±100 the full control effect; nearly all actives have a fitted effect of over 45% in size; luciferase light after 4 h
Cruzain Triton: qHTS Assay for Promiscuous and Specific Inhibitors of Cruzain (with detergent); Cruzipain (Trypanosoma cruzi), P25779; 0.43% of 200,000 active; purified cruzain, Z-FR-AMC fluorescence, 0.01% Triton; Potency, µM, for inactives: max response, negative = inhibition, hits mostly inhibitors;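 further: plate controls were neutral wells for no effect and buffer without enzyme for full effect; nearly all actives have a fitted effect of over 40% in size; top concentration of the series not given in the record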
Target sequence (P25779 123-467 limits assumed): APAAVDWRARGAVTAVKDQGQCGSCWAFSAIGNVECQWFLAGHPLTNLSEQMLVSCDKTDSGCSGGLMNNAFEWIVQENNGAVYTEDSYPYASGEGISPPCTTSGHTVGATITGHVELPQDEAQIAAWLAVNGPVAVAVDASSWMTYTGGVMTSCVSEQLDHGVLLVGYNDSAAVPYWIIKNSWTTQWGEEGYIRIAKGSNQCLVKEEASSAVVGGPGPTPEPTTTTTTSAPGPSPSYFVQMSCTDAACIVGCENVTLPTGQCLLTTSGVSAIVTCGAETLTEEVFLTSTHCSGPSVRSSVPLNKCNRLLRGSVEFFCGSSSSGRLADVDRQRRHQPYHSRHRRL
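Z-FR-AMC hydrolysis (2 uM substrate) by cruzain (1.5 nM) monitored kinetically at ex 360/em 450 nm after 15 min room-temperature compound exposure; 0.01% Triton X-100, pH 5.5, 5 mM DTT.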
Marburg entry inh: qHTS for inhibitors of binding or entry into cells for Marburg Virus | Marburg virus pseudotyped entry inhibition, cell reporter; control for the full effect not named in the record; about a third of the inactives were read at about 46 µM | Potency, µM (highest dose often 37.8 µM), for inactives: top-dose activity change, negative = inhibition, most hits filed as inhibitors | 1.8% of 300,000 active | AID 540276, 2011; active = well fitted inhibition curve with a large enough effect; inconclusive = small, poorly fitted or top-dose-only effect, or effect the other way; inactive = flat fitted curve, though single readings scatter; tested in HEK293 cells; about a fifth of its hits are not listed in these tables; further: on the % scale 0 is the no-effect control and ±100 the full control effect; luciferase read-out
Cruzain noTriton: qHTS Assay for Promiscuous and Specific Inhibitors of Cruzain (without detergent). Cruzipain (Trypanosoma cruzi), P25779. purified cruzain, Z-FR-AMC fluorescence, no detergent. Potency, µM, for inactives: max response, negative = inhibition, actives largely listed as inhibitors. 2.3% of 200,000 active;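 further: plate controls were enzyme without inhibitor for no effect and buffer without enzyme for full effect; nearly all actives have a fitted effect of over 40% in size; top concentration of the series not given in the record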
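Purified cruzain at 1.5 nM, pre-incubated 15 min with compound at room temperature in 100 mM sodium acetate pH 5.5, 5 mM DTT, 0.00005% Triton X-100. Reaction started with 2 uM Z-FR-AMC; AMC fluorescence increase over 60 s gives rate.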
Lassa entry inh: qHTS for Inhibitors of binding or entry into cells for Lassa Virus | Lassa virus pseudotype entry inhibition, cell reporter; control for the full effect not named in the record | Potency, µM (top dose mostly 37.9 µM), for inactives: top-dose activity change, negative = inhibition, actives largely listed as inhibitors | 1.2% of 300,000 active | AID 540256, 2011; active means well fitted inhibition curve with a large enough effect; inconclusive means small, poorly fitted or top-dose-only effect, or effect the other way; inactive means flat fitted curve, though single readings scatter; tested in HEK293 cells; further: on the % scale 0 is the no-effect control and ±100 the full control effect; nearly all actives have a fitted effect of over 50% in size; luciferase read-out
NS1 inh: qHTS Assay for Inhibitors of Influenza NS1 Protein Function. Potency, µM (top dose mostly 46.1 µM), without a hit: at the highest dose activity, positive = more growth. S. cerevisiae slowed by influenza A NS1, growth recovery by OD600. 0.4% of 270,000 active; active means well fitted rising curve with a large enough effect; inconclusive means small, poorly fitted or top-dose-only effect; inactive means no such curve, though single readings can be large or run the other way; further: nearly all actives have a fitted effect of over 50% in size
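A cell-based growth assay was used: compounds that relieve NS1-induced slow growth of budding yeast raise OD600. Assay medium was yeast nitrogen base with ammonium sulphate and -URA supplement, pH 6.0, with 2% galactose.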
The depositor's hits bear a star; ? = inconclusive; · = no result given; & = joins results of further samples; [ ] = another dose, or the depositor's remark. Unless noted, the call rests on the fitted dose curve; in most records, active means well fitted curve in the direction sought with a large enough effect; inconclusive means small, poorly fitted or top-dose-only effect, or another doubt; inactive means no such curve, though single readings can be large; an effect the other way counts as inactive or inconclusive. Potency means the concentration at half of the fitted maximal effect.

SMILES | SARS PLpro yeast | RE007 growth inh | 2A StopGo | Cruzain Triton | Marburg entry inh | Cruzain noTriton | Lassa entry inh | NS1 inh
COc1ccccc1N1CCN(C(=O)Cc2cccs2)CC1 | 6% | -9% | -5% | -1.5% | 19% | 0% | 7% | ?
CCCC(=O)Nc1nc(C)c(-c2csc(Nc3ccc(Cl)cc3)n2)s1 | -16% | 4% | -18% | -3.4% | · | 13µM* | · | ?
O=C(c1cncc(Br)c1)N1CCCc2ccccc21 | 4% | 2% | -19% | -2.9% | -20%&-20% | 1% | -2% | 10%
COc1ccc(CC(=O)NC(C)c2nnc(SCCOc3ccc(OC)cc3)n2C)cc1 (stereo not given) | 4% | 6% | -21% | 0.9% | -8% | 18% | 8% | -3%
COCCCN(CC(=O)Nc1ccc(N2CCOCC2)cc1)S(=O)(=O)c1ccccc1 | -1% | -5% | 4% | · | -3% | · | 4% | ·
CC(C)(C)OC(=O)N1CCC(c2c(C(=O)NCc3ccccn3)cnn2-c2ccccc2Cl)CC1 | · | · | 9% | -1.6% | · | ? | -16%[46.1 µM] | ·
O=C(c1ccccc1)N1CCc2cc(CNS(=O)(=O)c3ccc(Cl)s3)ccc21 | · | · | -15% | -1.3% | · | 16% | -17%[46.1 µM] | ·
OC(C1=CC(=Cc2ccncc2)c2ccccc21)c1ccncc1 (stereo not given) | · | -17% | ? | · | ? | · | -25%[46.1 µM] | ·
CC(=O)N1CCN(S(=O)(=O)c2cccc(C(=O)NCc3ccc(F)cc3)c2)CC1 | 1% | 10% | -4% | · | ? | · | 23%[46.1 µM] | ·
CC(=O)c1ccc(NC(=O)N2CCCC(C(=O)c3ccc4c(c3)OCO4)C2)cc1 (stereo not given) | -2% | 12% | -13% | · | · | · | · | -3%
CCCC(=O)Nc1c2c(nn1-c1ccc([N+](=O)[O-])cc1)CS(=O)(=O)C2 | 4% | 5% | -2% | · | · | · | · | -4%
C/C(=N/Oc1nc(C)cc(C)n1)c1ccc(Br)cc1 | 4% | -15% | -1% | 2.1% | 7% | 20% | 3% | -85%
COc1ccccc1CNC(=O)c1cc(C(C)C)nc2ccccc12 | ? | -6% | 3% | · | 0%[46.1 µM] | · | ? | -33%
CN(C(=O)COC(=O)c1cn(-c2ccccc2)nc1-c1ccccc1)C1CCS(=O)(=O)C1 (stereo not given) | 8% | -8% | 2% | · | 5%[46.1 µM] | · | 13%[46.1 µM] | ·
CCN(CC)C(=O)c1ccc(NC(=O)CCn2nc(-c3ccc(C)cc3)c3ccccc3c2=O)cc1 | · | · | ? | -7.0% | ? | ? | ? | ·
Cc1ccc(NC(=O)C2CCCN(c3cnccn3)C2)c(C)c1 (stereo not given) | 6% | 3% | 1%&3% | -1.8% | 28%&28%[46.1 µM] | -14% | 6%[46.1 µM] | 6%
CCOc1ccc(CNC(=O)Cn2nc(C)c3nn(-c4ccc(Cl)cc4)c(C)c3c2=O)cc1 | · | · | -10% | 4.2% | · | 1% | ? | ·
CCOC(=O)N1CCC(N2C(=O)c3ccccc3C2=O)CC1 | -13% | 15% | -17% | -0.5% | ? | -3% | -16% | -66%
O=C(Nc1ccc(NC(=O)c2ccc(Br)cc2)c(Cl)c1)c1ccc(Br)cc1 | · | · | 14% | 0.0% | · | 0% | 7%[46.1 µM] | ·
Cc1ccc(N2C(=N)/C(=C3/Nc4ccccc4S3)C(c3ccccc3)C2=O)cc1 (stereo not given) | -8% | 1% | 14% | 4.1% | 12% | ? | 7% | 5%
N#CCC(=O)N/N=C/c1c2ccccc2cc2ccccc12 | 2% | 0% | -27% | · | · | · | · | 0%
CCc1ccc(OCC(=O)NCC(c2ccc(OC)cc2)N2CCOCC2)cc1 (stereo not given) | · | · | -7% | -1.6% | 11%[46.1 µM] | 7% | 2%[46.1 µM] | ·
O=C(CCN1CCN(S(=O)(=O)c2ccc(Br)cc2)CC1)Nc1ccccc1F | 2% | -1% | ? | · | -35% | · | ? | ·
CC(NC(=O)CSc1nc2sc3c(c2c(=O)n1-c1ccccc1)CCCC3)c1ccccc1 (stereo not given) | -2% | -3% | · | -4.2% | ? | -11% | ? | 11%

Quoted from the listing.
COc1ccccc1CNC(=O)c1cc(C(C)C)nc2ccccc12 in NS1 inh: -33%
CCOc1ccc(CNC(=O)Cn2nc(C)c3nn(-c4ccc(Cl)cc4)c(C)c3c2=O)cc1 in Cruzain Triton: 4.2%
CCOC(=O)N1CCC(N2C(=O)c3ccccc3C2=O)CC1 in SARS PLpro yeast: -13%

Just SARS PLpro yeast, Lassa entry inh and Cruzain noTriton, for 6 of the compounds above:
compound,SARS PLpro yeast,Lassa entry inh,Cruzain noTriton
CCOC(=O)N1CCC(N2C(=O)c3ccccc3C2=O)CC1,-13%,-16%,-3%
Cc1ccc(N2C(=N)/C(=C3/Nc4ccccc4S3)C(c3ccccc3)C2=O)cc1 (stereo not given),-8%,7%,?
N#CCC(=O)N/N=C/c1c2ccccc2cc2ccccc12,2%,·,·
CCc1ccc(OCC(=O)NCC(c2ccc(OC)cc2)N2CCOCC2)cc1 (stereo not given),·,2%[46.1 µM],7%
COc1ccccc1CNC(=O)c1cc(C(C)C)nc2ccccc12,?,?,·
Cc1ccc(NC(=O)C2CCCN(c3cnccn3)C2)c(C)c1 (stereo not given),6%,6%[46.1 µM],-14%

Continued.
SMILES | SARS PLpro yeast | RE007 growth inh | 2A StopGo | Cruzain Triton | Marburg entry inh | Cruzain noTriton | Lassa entry inh | NS1 inh
CCCN1CCc2nc(SCC(=O)Nc3ccc(C)c(Cl)c3)[nH]c(=O)c2C1 | -5% | -1% | -11%&2% | 7.9% | 0%[46.1 µM] | 2% | 1%[46.1 µM] | 13%
CCC(=O)N1CCc2cc(Br)cc(S(=O)(=O)N3CCC(C(=O)NC(C)C)CC3)c21 | 2% | 4% | -6% | · | 16%[46.1 µM] | · | -2%[46.1 µM] | -6%
O=C(CSc1nc2ccccc2[nH]1)NCCc1ccc(Cl)cc1 | -20% | 3% | -22% | -2.4% | 0% | 6% | 4% | -11%
CCCc1cc(=O)oc2c(C)c(OCC(=O)N3CCC[C@@H]3C(=O)O)ccc12 | -3% | 1% | -24% | · | · | · | · | 3%
CC(=O)c1ccc(NC(=O)CSc2nc(=O)n3cccc(C)c3n2)cc1 | · | 15% | -12% | · | ? | · | 15% | ·
O=C(CN1C(=O)c2ccccc2S1(=O)=O)NCCSCc1c(F)cccc1Cl | -6% | -11% | 14% | · | 7%[46.1 µM] | · | 2% | -5%
N#CCC1c2ccccc2CCN1C(=O)Nc1ccc(C(F)(F)F)cc1 (stereo not given) | -5% | -8% | -6% | -3.4% | -8% | 3% | -14% | 0%
O=S1(=O)CCC(NC(=S)Nc2ccc(Cl)cc2)C1 (stereo not given) | -8% | 1% | 80%[activator] | -1.8% | ? | 9% | 1% | -1%
COc1ccc(C(C(=O)NC2CCCC2)N(CCCO)C(=O)Cn2nnc(-c3ccc(C)o3)n2)cc1 (stereo not given) | -1% | -20% | 7% | · | -14%[46.1 µM] | · | -6%[46.1 µM] | -3%
CCOCCc1c(O)nc(SCC(=O)NCc2ccco2)[nH]c1=O | 4% | 6% | 8% | 2.4% | 14% | -17% | 10% | -2%
CCOC(=O)c1ccc(N=C(CC)c2c(O)n(C)c(=O)n(C)c2=O)cc1 | 2% | 11% | ? | · | ? | · | -3% | -1%
CC(=O)Oc1cccc(C(=O)Nc2c[nH]c(=O)[nH]c2=O)c1 | 1% | -5% | 14% | · | 18%[46.1 µM] | · | -1% | 4%
COCC(=O)Nc1cc(OC)c(Cl)cc1OC | -1% | -3% | -9% | -0.6% | -10% | 1% | 1% | 2%
CC(C)C(=O)Nc1ccc(NC(=O)c2cccc(F)c2)cn1 | 1% | -12% | 48%[activator] | -0.2% | 2%[46.1 µM] | -6% | 7% | ?
O=C(CSc1cn(CC(=O)N2CCOCC2)c2ccccc12)N1CCOCC1 | 13% | -3% | 13% | · | · | · | · | ?
O=C(C[N+]12CC[N+](CC(=O)c3ccc(F)cc3)(CC1)CC2)c1ccc(F)cc1 | 0% | 4% | -12% | · | · | · | · | 2%
CC(C)(C)OC(=O)N1CCC(c2c(C(=O)N3CCN(c4ccccn4)CC3)cnn2-c2ccc(F)cc2)CC1 | · | · | -15% | 0.0% | · | -11% | ? | ·
COc1ccc(N(C)C(=O)NCc2noc3ccc(C)cc23)c(OC)c1 | · | · | -14% | -1.7% | · | 16% | 2%[46.1 µM] | ·
CCOc1ccc(C(C)=O)cc1CSC(=N)N | 0% | -4% | -13% | · | ? | · | -6%[46.1 µM] | 2%
COC(=O)c1ccc(NC(=O)CSc2nc(=O)[nH]c3c2CCCC3)cc1 | · | · | -14% | -0.4% | · | 8% | 13%[46.1 µM] | ·
CCOc1ccccc1CN1CCC(CO)(CCOc2ccccc2)CC1 | 0% | 12% | -12% | · | -9%[46.1 µM] | · | -15% | 1%
CCCCNC(=O)CCCCCn1c(=O)[nH]c2cc(OC)c(OC)cc2c1=O | 2% | -12% | -7% | 0.7% | 5% | 1% | -25% | 6%
CCC(Sc1nc2ccccc2s1)C(=O)Nc1cc(C)on1 (stereo not given) | -16% | -4% | -20% | -8.3% | -21% | -12% | 2% | 3%
Cc1ccc(NC(=O)CSc2nnc3ccc(-c4cccnc4)nn23)cc1 | -6% | -9% | -15% | · | 10%[46.1 µM] | · | 9% | ·
COc1ccc(NC(=O)c2cc(-c3cccnc3)nc3ccc(C)cc23)cc1OC | 0% | 4% | -14% | 1.3% | ? | ? | -3% | 19%
